High-throughput results as filed in PubChem.
miR-21 FLuc: qHTS Assay for Modulators of miRNAs and/orActivators of miR-21; HeLa miR-21 FLuc reporter, luciferase, 48 h; Potency, µM (titrated, usually from 38.3 µM), for the others: top-dose reporter change, positive = more light; 340,000 tested, under 10 active; AID 2288, 2010; active = well fitted rising curve with a large enough effect; inconclusive = small, poorly fitted or top-dose-only effect; inactive = no such curve, though single readings can be large or run the other way;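 further: % of control where 0% means no effect; miR-21 action dims this reporter so a rising signal means less miR-21 action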
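Using DMEM plus 10% FBS, HeLa miR-21-FLuc cells are incubated with test compounds (final up to about 40uM) for 48 hours; firefly luciferase signal is then imaged following reagent-mediated lysis.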
GLA inh pH 4.5: qHTS Assay for Inhibitors of Human alpha-Galactosidase at pH 4.5; purified enzyme, 4-MU-alpha-Gal fluorescence, pH 4.5; activity change, negative = inhibition, % at 105 µM; 230,000 tested, under 10 active; inconclusive = small, poorly fitted or top-dose-only inhibition, or a rising curve; inactive = flat fitted curve, though single readings scatter; no compound was filed as active;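 further: 0% = full activity with enzyme and -100% = basal without enzyme; dose as in the result columns while the protocol names 77 µM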
Rango-impB inh: qHTS Assay for Inhibitors of Rango (Ran-regulated importin-beta cargo) - Importin beta complex formation; Importin subunit beta-1 (Homo sapiens), Q14974; Rango CFP/YFP FRET sensor + importin beta, 45 min; Potency, µM (titrated, usually from 92.2 µM), for the others: at the highest dose inhibition of complex formation; 0.031% of 340,000 active; AID 540263, 2011; active = rising FRET ratio curve, often small or poorly fitted; inconclusive = mostly compound fluorescence or quenching in the first reads; inactive = flat curves in all reads;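 further: potency means the concentration at half of the fitted maximal effect; 0% = DMSO wells and 100% = buffer wells lacking importin beta; nearly all actives have a fitted effect of over 15% in size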
Target sequence (Q14974 whole entry, looked up): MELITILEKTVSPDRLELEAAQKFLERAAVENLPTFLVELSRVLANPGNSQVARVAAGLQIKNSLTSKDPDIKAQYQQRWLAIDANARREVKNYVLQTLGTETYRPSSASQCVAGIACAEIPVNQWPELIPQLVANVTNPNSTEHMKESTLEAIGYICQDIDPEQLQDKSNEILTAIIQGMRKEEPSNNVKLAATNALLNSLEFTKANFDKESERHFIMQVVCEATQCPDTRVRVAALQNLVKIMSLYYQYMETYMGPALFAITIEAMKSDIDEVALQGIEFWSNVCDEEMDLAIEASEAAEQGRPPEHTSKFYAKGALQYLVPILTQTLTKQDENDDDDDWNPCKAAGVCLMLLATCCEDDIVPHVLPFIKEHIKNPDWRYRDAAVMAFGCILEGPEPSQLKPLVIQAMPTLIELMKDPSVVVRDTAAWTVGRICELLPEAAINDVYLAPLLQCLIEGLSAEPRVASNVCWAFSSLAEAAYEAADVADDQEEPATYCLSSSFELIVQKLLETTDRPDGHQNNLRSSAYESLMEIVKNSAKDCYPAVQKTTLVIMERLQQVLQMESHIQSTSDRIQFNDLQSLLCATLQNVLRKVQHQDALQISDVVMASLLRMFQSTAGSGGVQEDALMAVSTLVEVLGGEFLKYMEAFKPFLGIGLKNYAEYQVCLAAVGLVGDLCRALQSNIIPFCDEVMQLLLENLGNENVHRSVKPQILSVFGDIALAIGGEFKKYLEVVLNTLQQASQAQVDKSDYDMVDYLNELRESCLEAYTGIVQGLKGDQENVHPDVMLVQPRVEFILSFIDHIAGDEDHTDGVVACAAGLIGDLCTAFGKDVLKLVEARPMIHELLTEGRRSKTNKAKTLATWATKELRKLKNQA
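FRET biosensor (snurportin 1 IBB flanked by EYFP and cerulean), 50 nM, with compound 5 min, then 0.125 microM importin beta in PBS, 1 mM DTT, 0.02% Tween-20, 0.1% BSA. CFP/YFP ratio read after 45 min at room temperature; pre-read flags interference.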
Rango release inh: qHTS Assay for Inhibitors of RanGTP induced Rango (Ran-regulated importin-beta cargo) - Importin beta complex dissociation. Biochemical FRET Rango-importin beta, RanGTP-induced dissociation. Potency, µM (top dose mostly 46.1 µM), without a hit: at the highest dose activity change, negative = inhibition. 0.071% of 340,000 active. AID 540253, 2011; active means falling FRET ratio curve, often poorly fitted, with flat reads before Ran was added; inconclusive means other falling curves, or compound fluorescence or quenching; inactive means flat or rising ratio curve;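 further: potency means the concentration at half of the fitted maximal effect; % of control where 0% means no effect; nearly all actives have a fitted effect of over 45% in size; -100% = wells without RanGTP and RCC1; the record marks most hits as doubtful in a second field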
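Compounds preincubate 5 min with complex of recombinant Rango and importin beta in PBS with 1 mM DTT. Ran (0.6 uM) loaded with 2 mM GTP plus 0.2 uM RCC1 starts dissociation; FRET is recorded 45 min later.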
Starred values were filed as active, the others as inactive; ? = inconclusive; . = not tested or not shown; & = joins results of further samples. Only part of the results is shown; rates above refer to the full screens.

SMILES	miR-21 FLuc	GLA inh pH 4.5	Rango-impB inh	Rango release inh
CCCCCCC(=O)N=Nc1c(O)[nH]c2ccc([N+](=O)[O-])cc12	0%	-5	-5.3%	18%
CCC(Sc1nc2ccncc2[nH]1)C(=O)Nc1cc(Cl)ccc1C (centres undefined)	12%&22%	.	-0.9%	-12%
O=C(/C=C/c1ccc([N+](=O)[O-])cc1)NNC(=O)C1CC1	-4%	-9	-2.9%	16%
COc1ccc(N2CCN(Cc3cc(=O)oc4ccc5ccccc5c34)CC2)cc1	0%	-4	-0.1%	0%
O=C(C1CCN(C2CCN(C/C(Cl)=C/c3ccccc3)CC2)CC1)N1CCOCC1	-2%	-8	-0.1%	-9%
Cc1cc(C)nc(-n2ncc3c2CC(c2ccccc2C)CC3=O)n1 (centres undefined)	-2%	6	?	10%
CCc1ccc(OCCNC(=O)c2ccc(S(=O)(=O)N(C)C)cc2)cc1	0%	5	1.5%	0%
COC(=O)C(C)NC(=O)C1CCCN1S(=O)(=O)c1cc(C)c(Cl)cc1C (centres undefined)	-2%	-2	5.0%	-3%
COc1cc(/C=C(\C#N)c2nc3c(s2)CCCC3)ccc1O	-51%	-11	.	.
CCCC1CCC(C2=N/C(=C\c3ccc(OC)c(OC)c3)C(=O)O2)CC1 (centres undefined)	0%	3	-0.2%	-20%
CCOC(=O)c1c(NC(=O)COc2ncnc3ccccc23)sc(C)c1CC	1%	-2	-3.8%	-21%
CCCCC1=CC2=CC(=O)C(C)(OC(=O)CC)C(=O)C2=CN1CCN1CCOCC1 (centres undefined)	-5%	-4&2	?	?
COc1ccc(C=C(C#N)C#N)c(CSc2ccccn2)c1	-2%	.	-2.7%	?
COc1ccc(/C(C)=N/NC(=O)C2C3CCCCC32)c(OC)c1 (centres undefined)	-28%	-2	-0.9%	-12%
O=C(O)CCCCCNc1ccc2nsnc2c1[N+](=O)[O-]	-19%	3	0.5%	-11%
CNc1nc(C)c(C(=O)c2ccc(Cl)cc2)s1	-19%	-4	-4.8%	0%
COc1cc(NC(=O)c2cccc(Cl)c2)ccc1NC(=O)c1cccs1	-9%	-6	-2.7%	1%
CCOC(=O)COc1ccc2c(c1)C(=O)CC(C)(c1cccnc1)O2 (centres undefined)	1%	20	0.2%	-12%
CC(C)(C)c1nc(Sc2ncccc2[N+](=O)[O-])n[nH]1	11%	0	5.2%	11%
COc1ccccc1CC(=O)Nc1nc(-c2ccc(F)c(F)c2)cs1	4%	.	-0.3%	8%
CC1CC(C)CN(CCCNC(=O)c2ccc3c(c2)NC(=O)CS3)C1 (centres undefined)	-6%	.	4.6%	11%
CCC(C)N1CCN(S(=O)(=O)c2ccc3ccccc3c2)CC1 (centres undefined)	1%	.	0.4%	-12%
COC(=O)c1sccc1NC(=O)CSCC(=O)O	-2%	?	2.1%	10%
Cc1cccc(NC(=O)C2CCN(S(=O)(=O)c3cccc4cccnc34)CC2)n1	20%	-2	1.7%	-1%

Reprinted from the part before: two entries, followed by the next part.
SMILES	miR-21 FLuc	GLA inh pH 4.5	Rango-impB inh	Rango release inh
COC(=O)c1sccc1NC(=O)CSCC(=O)O	-2%	?	2.1%	10%
Cc1cccc(NC(=O)C2CCN(S(=O)(=O)c3cccc4cccnc34)CC2)n1	20%	-2	1.7%	-1%
CC(=O)c1sc(Nc2cccc3ccccc23)nc1C	.	.	-0.6%	-11%
Cc1ccc(NC(=O)c2cccs2)cc1[N+](=O)[O-]	-1%	11	-2.5%	-3%
O=c1c2c(nc3cc(-c4cccc(F)c4)[nH]n13)CCC2	-58%	3	-1.3%	3%
COc1ccc(-c2coc3cc(O[C@@H]4O[C@H](CO)[C@@H](O)[C@H](O)[C@H]4O)c(OC)cc3c2=O)cc1	.	.	-2.5%	-3%
Cc1sc(NC(=O)c2ccccc2)c(C(c2ccccn2)N2CCN(CCO)CC2)c1C (centres undefined)	-10%	-8	3.8%	-12%
COc1cc2c(cc1OC)CN(C(=O)CN1CCN(S(=O)(=O)c3ccc(C)c(C)c3)CC1)CC2	12%	.	2.4%	13%
Cc1nn(C)cc1CN(C)C(=O)c1sc2cccc(Cl)c2c1Cl	-15%	-3	6.1%	10%
CCCCNc1nc2c(c(=O)[nH]c(=O)n2C)n1CCOc1ccccc1	-5%	0	-5.1%	21%
CN(C)c1ccc(/C=C(\C#N)C(=O)NCc2ccco2)cc1	-42%	-3	.	.
Nc1nc2n(n1)C(c1c(F)cccc1Cl)CC(c1ccc(F)cc1)N2 (centres undefined)	-9%	1	-3.9%	0%
Cc1cccc(N2C(=S)NC3c4ccccc4OC2(C)C3C(=O)N(C)C)c1 (centres undefined)	-2%	8	1.0%	18%
COc1ccc(-c2c(-c3cc(OC)cc(OC)c3)n(C)c3ccc(Br)cc23)cc1	.	.	-3.6%	18%
Cc1ccc(C(=O)N/N=C\C=C\c2ccc(Br)cc2)cn1	5%	-1	-1.4%	34%
CC1(C)Oc2ccc(C(=O)NC3CCCCC3)cc2N(CC#N)C1=O	-6%	.	0.2%	20%
O=C(NNC(=O)c1ccccc1-c1ccccc1C(=O)O)c1ccccc1	-1%	-6	-1.1%	-2%
CN(C(=O)COc1ccccc1)C1CCS(=O)(=O)C1 (centres undefined)	0%	1	-0.6%	-5%
Cc1cccc(NC(=O)CSCC(=O)Nc2cc(S(=O)(=O)N3CCOCC3)ccc2N2CCCC2)c1	-4%	.	-1.1%	-4%
CN1CCc2ccc(NC(=O)c3ccc(C(F)(F)F)cc3)cc2C1	-3%	.	-1.0%	20%
CCOC(=O)c1c(C)[nH]c(C)c1C(=O)COC(=O)CNC(=O)c1ccc(OCC)cc1	-6%	2	1.3%	-3%
COc1ccccc1OCC(=O)N(Cc1nnc(-c2ccccc2Cl)o1)C1CC1	.	.	-4.1%	-7%
Cc1ccc(S(=O)(=O)N2CCN(C(=O)COC(=O)COc3cccc(C(F)(F)F)c3)CC2)c(C)c1	.	.	0.5%	1%
NS(=O)(=O)c1ccc(CNC(=O)Cc2c(F)cccc2Cl)cc1	0%	-14	-1.8%	5%
CN(C)c1cccc(C(=O)OCC(=O)NC(=O)NCc2ccccc2)c1	.	.	-0.7%	2%
N#Cc1c(N)sc2c1CCN(C(=O)OCc1ccccc1)C2	-14%	?	2.3%	4%
O=C(NCC(c1ccco1)N1CCCC1)c1cccc(S(=O)(=O)Nc2ccc(F)cc2)c1 (centres undefined)	.	.	-1.0%	20%
O=C(N/N=C/c1cccnc1)c1cccs1	-38%	1	0.2%	-21%
CCN(CC)Cc1c(C(=O)OC(C)C)nnn1-c1nonc1N	-5%	-4	-1.0%	8%
Cc1ccc(C(=O)CSc2nnc(CNc3ccc(C)cc3C)o2)cc1	-2%	4	1.5%	3%
CCCSc1nnc(-c2c[nH]c3ccccc23)n1C	-49%	3	-2.5%	31%
CC(=O)Nc1ccc2nc(SCC(=O)N3CCOCC3)sc2c1	-14%	2	-3.4%	-3%
CCOC(=O)c1ccc(NC(=O)C2CC(=O)Nc3nc4ccccc4n32)cc1 (centres undefined)	0%	8	-0.9%	-8%
Cc1ccc(S(=O)(=O)NC(=O)COc2ccc([N+](=O)[O-])cc2)cc1	-2%	.	4.1%	13%
CC(C)NC(=O)c1cc2c(=O)n3ccccc3nc2s1	-1%	.	-4.5%	-14%
Cc1cc(C(=O)CSc2nnnn2C)c(C)n1Cc1ccco1	-52%	4	0.0%	35%
COc1ccc(C(=O)NC2CC2)cc1OC1CCN(Cc2ccc(F)cc2)CC1	-4%	.	2.0%	7%
COc1ccc(/C=c2\s/c(=C(/C#N)C(=O)NCc3ccco3)n(-c3ccccc3)c2=O)cc1	-5%	-1	?	?
CC(=O)c1ccc(NC(=O)Cc2ccsc2)cc1	-37%	.	4.9%	-6%
COc1cc(NC(=O)C2CCCN(S(=O)(=O)c3ccc4c(c3)CCCN4C(C)=O)C2)cc(OC)c1 (centres undefined)	7%	.	-2.9%	14%
COc1cc(C(=O)NNC(=O)c2ccccc2Br)ccc1OCC(=O)N1CCOCC1	.	.	-0.3%	4%
CCCC(c1nnnn1CC1CCCO1)N1CCN(c2cc(Cl)ccc2C)CC1 (centres undefined)	19%	-1	-4.9%	-4%
Cc1cc(C)cc(OCC(=O)Nc2cccc(-c3nnc(-c4ccco4)o3)c2)c1	0%	-3	-1.9%	-1%
CCN(CC)S(=O)(=O)c1cccc(C(=O)OCC(=O)C23CC4CC(CC(C4)C2)C3)c1	-3%	0	-0.2%	1%
COc1ccc(C(=O)N2CCC(n3c(C)nc4cc(F)ccc43)CC2)cc1	1%	0	-0.4%	-14%
CCC(C)/C(C)=N/NC(=O)c1ccccc1OCCOc1ccccc1 (centres undefined)	-5%	7	1.8%	30%
CCOC(=O)C1=C(C)NC(=O)NC1c1c(C)nn(-c2ccccc2)c1Cl (centres undefined)	-3%	1	-4.4%	?
CCOC(=O)C1=C(NC(=O)c2ccc(Br)o2)Nc2ccccc2N=C1	-17%	-5	1.6%	5%
COc1ccc(-c2cc(C(F)(F)F)n3nc(C)cc3n2)cc1	-1%	2	-3.6%	?
CC1=CCC2(CO)COC(c3ccccc3O)C1C2 (centres undefined)	-1%	1	-1.0%	0%
COC(=O)c1ccc(COC(=O)C2CCN(S(=O)(=O)c3c(Cl)cccc3Cl)CC2)o1	.	.	0.2%	-12%
Cc1cc(C)cc(C(=O)N(C)C2CCCN(Cc3ccccc3F)C2)c1 (centres undefined)	11%	.	?	-3%
COCc1cc(CN2CCN(CCCc3ccccc3)C(CCO)C2)ccc1OC (centres undefined)	1%	.	-2.6%	-2%
CC(C)Cc1nnc(NC(=O)CCS(=O)(=O)c2ccc(Cl)cc2)s1	7%	.	-0.8%	-3%
CCOC(=O)c1nnn2c1nc(N1CCN(C)CC1)c1ccccc12	-1%	4	0.1%	-20%
COC(CNC(=O)CN1CCN(Cc2ccc(F)cc2Cl)C1=O)OC	0%	.	1.0%	-7%
CCC(Cc1ccccc1)NC(=O)CCNS(=O)(=O)c1cc(Br)cnc1N (centres undefined)	8%	.	-4.1%	?

Ordered by length of the SMILES (smallest number first): some entries from above
SMILES	miR-21 FLuc	GLA inh pH 4.5	Rango-impB inh	Rango release inh
CC1=CCC2(CO)COC(c3ccccc3O)C1C2 (centres undefined)	-1%	1	-1.0%	0%
COc1ccc(-c2cc(C(F)(F)F)n3nc(C)cc3n2)cc1	-1%	2	-3.6%	?
CCC(C)/C(C)=N/NC(=O)c1ccccc1OCCOc1ccccc1 (centres undefined)	-5%	7	1.8%	30%
COCc1cc(CN2CCN(CCCc3ccccc3)C(CCO)C2)ccc1OC (centres undefined)	1%	.	-2.6%	-2%
Cc1cc(C)cc(C(=O)N(C)C2CCCN(Cc3ccccc3F)C2)c1 (centres undefined)	11%	.	?	-3%
CCOC(=O)C1=C(NC(=O)c2ccc(Br)o2)Nc2ccccc2N=C1	-17%	-5	1.6%	5%
CCC(Cc1ccccc1)NC(=O)CCNS(=O)(=O)c1cc(Br)cnc1N (centres undefined)	8%	.	-4.1%	?
COc1ccc(C(=O)N2CCC(n3c(C)nc4cc(F)ccc43)CC2)cc1	1%	0	-0.4%	-14%
CCOC(=O)C1=C(C)NC(=O)NC1c1c(C)nn(-c2ccccc2)c1Cl (centres undefined)	-3%	1	-4.4%	?
Cc1cc(C)cc(OCC(=O)Nc2cccc(-c3nnc(-c4ccco4)o3)c2)c1	0%	-3	-1.9%	-1%
COC(=O)c1ccc(COC(=O)C2CCN(S(=O)(=O)c3c(Cl)cccc3Cl)CC2)o1	.	.	0.2%	-12%
CCN(CC)S(=O)(=O)c1cccc(C(=O)OCC(=O)C23CC4CC(CC(C4)C2)C3)c1	-3%	0	-0.2%	1%
